Screens (PubChem BioAssay)
ugtP null kill – growth inhibition of S. aureus ugtP deletion strain. 330,000 compounds, 0.54% hits. growth inhibition, % (no concentration beside the values). S. aureus RN4220 ugtP deletion, OD600 growth, 16 h; some inactives read as strong as hits. AID 1259309;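 active = z-score under -3 and OD600 up to 0.15 on both plates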;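 also: plate controls were untreated wells for no effect and antibiotic for full effect; wells of about 80 µL received 100 nL stock; the first replicate is given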
PrP 5UTR inh – inhibition of PrP 5' UTR reporter expression; cell-based PrP 5' UTR mRNA reporter, plate reader; inhibition, % (concentration not given with the values); 340,000 compounds, 0.35% hits; AID 488862;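 active = every replicate at 50% or more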;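 also: 0 = median of the neutral control wells; tested in H4 reporter cells; numbers are from one replicate; inactives centre near -14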
BJeLR viability – BJeLR cell viability loss. BJeLR (HRASV12) viability, CellTiter-Glo ATP luminescence, 48 h; reference of the scale not given here. inhibition, % (no concentration beside the values). 300,000 compounds, 0.17% hits. AID 1554;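 active = replicate mean above 50%; inconclusive = above 50% but judged a plate artefact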;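 also: 50 nL library stock added to about 25 µL; numbers are from one replicate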
Mtb hypoxia inh – Mtb hypoxia fluorescent reporter inhibition; 300,000 compounds, 0.1% hits; AID 1159583; M. tuberculosis hypoxia-regulated fluorescent reporter, fluorescence; fluorescence inhibition, % (concentration not given with the values);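 active = 35 to 45% if threefold the growth effect, above 45% if 1.5-fold the growth effect; inactive = the rest, general growth blockers included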;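 also: wells of about 50 µL received 100 nL stock; 0% = vehicle wells and 100% = reference inhibitor wells; whole bacteria with a GFP reporter of the hypoxia response; strong numbers were not always called active; many hits fall short of the cut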
RN4220 kill – S. aureus RN4220 growth inhibition. OD600, 16 h. AID 1259311. 330,000 compounds, 0.33% hits. inhibition, % (no concentration beside the values);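 active = z-score of -3 or lower and OD600 up to 0.18 on both plates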;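 also: plate controls were untreated cells for no effect and reference antibiotic for full effect; stock transfer was 100 nL into about 80 µL; one replicate is shown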
Bead autofluor – compound fluorescence in toxin protease inhibitor counterscreen. compound autofluorescence counterscreen, microsphere flow cytometry; active compounds read high. fluorescence intensity (concentration not given with the values). 360,000 compounds, 3.1% hits. AID 624483;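 active = at least 3 SD above the mean of all compounds, about 16000 in these data; inconclusive = too few beads counted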;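 also: 100 nL of 1 mM stock went into each well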
Mtb hypoxia inh growth – second read-out of Mtb hypoxia inh, no call of its own (marks repeat the call); growth inhibition, %; measured here: M. tuberculosis growth (absorbance);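 0% = vehicle and 100% = reference antibiotic; read after six days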
* = called active by the depositor; ? = inconclusive; / = no result given. No enrichment for hits, and some 4.1% of all compounds hit somewhere here.

compound	ugtP null kill	PrP 5UTR inh	BJeLR viability	Mtb hypoxia inh	Mtb hypoxia inh growth	RN4220 kill	Bead autofluor
Cc1ccccc1SCC(=O)NNC(=O)c1ccccc1O	-2	-4	15	5	8	5.0	5400
O=C(Nc1ccc(S(=O)(=O)Nc2nccs2)cc1)c1ccc(F)cc1	1	-13	-4	5	16	3.4	5284
COc1cccc(OCC(O)CN2CCN(c3ccccn3)CC2)c1 (stereo unspecified)	1	-9	7	5	3	-1.9	7591
ON=C(c1ccc(Cl)cc1)c1cc2ccccc2o1	47	/	/	5	8	-4.8	/
COc1cccc(/C=c2\s/c(=C\C(=O)C(C)(C)C)[nH]c2=O)c1	/	-9	6	/	/	/	4197
CC(C)C(NC(=O)c1ccc2c(c1)OCO2)C(=O)NN=Cc1ccco1 (stereo unspecified)	5	/	/	15	7	3.5	/
CSc1nsc(NC(=O)CCNC(=O)c2ccc([N+](=O)[O-])cc2)n1	8	-21	0	-1	1	3.0	3578
O=S(=O)(Nc1ccc2ccccc2n1)c1ccccc1	-1	-23	2	1	-1	3.1	6133
CCS(=O)(=O)c1ccc(-c2cccc(NC(=O)COc3ccc(Cl)cc3)c2)nn1	-1	7	-7	-14	-13	-0.3	4194
O=C(/C=C/c1ccccc1)N1CCN(Cc2nc3ccccc3c(=O)[nH]2)CC1	7	-1	-3	5	8	6.1	8213
Cc1ccc(-c2csc(SCC(=O)Nc3cc(C)on3)n2)cc1	-2	-12	-1	14	17	1.8	17847*
CC(C)N(C(=O)[C@H]1CC(CC(=O)NCCCN(C)C)C(=O)N2CCc3c([nH]c4ccccc34)[C@]12C)C(C)C (stereo partly specified)	1	-11	/	0	12	-0.1	2899
Cc1cc2c(cc1C)C(=O)C(Br)=C(N)C2=O	13	-34	/	-11	5	38	3791
Cc1ccc2cc(CN(Cc3ccco3)C(=S)NCC3CCCO3)c(=O)[nH]c2c1 (stereo unspecified)	8	-15	0	6	0	7.1	3976
COC(=O)[C@@]12CCCN1C(c1ccc(-c3cccc(Cl)c3)cc1)C1C(=O)N(C)C(=O)C12 (stereo partly specified)	1	/	/	1	6	2.5	/
CN=C(Nc1cc(C)nn1CCC#N)c1ccccc1	6	-18	0	4	-9	2.3	6653
Cc1ccc(OCC(=O)Nc2ccc(N3CCOCC3)cc2)cc1	0	-40	3	13	7	7.0	5189
COC(=O)c1c(C)[nH]c(C(=O)C(C)OC(=O)C2CC(=O)N(CCc3ccccc3)C2)c1C (stereo unspecified)	-2	-20	/	18	8	1.0	3818
COc1ccc(NC(=O)C2CCN(c3nnnn3-c3ccccc3)CC2)cc1	1	-12	-1	-1	11	-0.7	3605
N#CCC(=O)Nc1ccc(C(=O)OCC(=O)N=c2sccn2Cc2ccccc2Cl)cc1	-14	-20	0	-3	9	0.4	?
O=C(NCCCN1CCN(c2ccc(F)cc2)CC1)NC12CC3CC(CC(C3)C1)C2	6	-8	13	13	10	-3.8	3157
O=S(=O)(Nc1nc2ccccc2nc1Cl)c1ccc(F)cc1	15	-9	3	-10	-14	5.5	4394
Cc1cc(OCC(=O)N[C@@H](Cc2ccccc2)C(=O)O)c2c3c(c(=O)oc2c1)CCCC3	10	-15	0	/	/	1.1	5429
CCOc1ccc(CN2CCNC(=O)C2CC(=O)NCCN2CCOC2=O)cc1 (stereo unspecified)	11	-12	-5	6	-2	4.7	4890
COc1cccc(CC(=O)OCC(=O)N(C)CC(=O)Nc2ccc(Cl)c(C(F)(F)F)c2)c1	10	-15	-11	5	-8	6.7	?
COc1ccc(OC)c(N(C)S(=O)(=O)c2cc3c(cc2C)NC(=O)CO3)c1	-3	-53	6	9	6	-0.2	5589
O=C(OCc1ccccc1)/C(=C/c1cccc2ccccc12)NC(=O)c1ccccc1	9	-1	5	14	-3	4.5	2017
O=C(Cc1cccc2ccccc12)NCC(=O)Nc1ccccc1F	3	-16	-6	0	-4	-0.5	5459
N#Cc1ccc(-c2ccccc2)nc1SCCN1CCOCC1	8	-6	3	4	7	0.2	2343
COCC(=O)Oc1c(S(=O)(=O)c2ccccc2)c(C)nn1C(C)(C)C	1	-23	-10	-8	-6	2.0	3143
CC(C)(C)c1nc(SCC(=O)NCc2ccco2)c2ccccc2n1	7	-2	-3	6	6	2.2	?
COc1ccc(NC(=S)N2CCC(N(C)CC3CCCO3)CC2)cc1 (stereo unspecified)	4	-10	-3	7	1	2.2	2853
Cc1ccccc1NC(=S)NNC(=O)c1ccncc1	0	-20	6	7	8	1.7	3176
CCOC(=O)C1C2COc3ccc(Br)cc3C2N2C(=O)N(c3cccc(Cl)c3)C(=O)[C@@]12C (stereo partly specified)	-37	/	/	2	8	-2.7	/
COc1ccc(F)cc1C(=O)C1CCCN(Cc2ccc(Oc3ncccn3)cc2)C1 (stereo unspecified)	13	-51	-2	10	0	3.4	2816
COc1cc(C=NNC(=O)COc2c(C)cc([N+](=O)[O-])cc2C)ccc1OC(=O)c1ccccc1Br	-6	/	/	14	2	4.8	/
NC(=S)N/N=C/c1c[nH]c2ccc(OCc3ccccc3)cc12	/	-13	-1	/	/	/	3889
Cc1cc(NS(=O)(=O)c2ccc(NC(=O)C(C)Oc3cc(C)c(Cl)c(C)c3)cc2)no1 (stereo unspecified)	-11	-16	-7	1	3	22	5897
Cc1ccc(-n2c(CCC(=O)O)ccc2-c2cccs2)cc1C	-30	-20	1	8	18	17	3315
COC(=O)C1CCN(C(=O)Cn2nnc(-c3cccc(F)c3)n2)CC1	11	-1	4	5	6	2.3	2888
Cc1cc(=O)oc2c3c(cc(OCC(=O)NCCC(=O)O)c12)OC(C)(C)CC3	-5	-10	-3	-2	5	0.5	3819
Cc1ccc(S(=O)(=O)NN2C(=O)/C(=C\c3ccc(Cl)cc3)SC2=S)cc1	76	-22	-1	6	4	83	3424
O=C1CCCN1c1ccc(S(=O)(=O)N2CCC(c3ccccc3)CC2)cc1	2	-18	1	6	4	1.1	10181
CCOc1ccc(CCNC(=O)c2cccc(N3CCCC3=O)c2)cc1OCC	4	-17	-17	6	8	4.9	8911
COc1ccc([N+](=O)[O-])cc1NC1CCN(C(=O)c2cccs2)CC1	17	-6	-7	3	7	4.5	4898
Cc1ccc(-n2nnnc2SCC(=O)N2Cc3ccccc3CC2C(=O)O)cc1 (stereo unspecified)	6	-1	-14	2	-1	8.6	4642
CCCCN(C)C(=O)c1ccc2c(c1)S(=O)(=O)c1ccccc1C2=O	-6	-7	-9	-4	6	-1.9	5078
CCN(CC)CCCNC(=O)/C=C/C(=O)O	1	2	-4	-2	-23	-1.1	3885
COc1ccccc1NS(=O)(=O)c1ccc(O)c(NC(=S)NCC2CCCO2)c1 (stereo unspecified)	3	-11	-9	4	-8	1.3	4952
COc1ccccc1-c1c(C)nn2c(NCCN3CCCC3)cc(C)nc12	7	-13	-1	14	7	2.4	6802
Cn1c(=O)c2c(nc(C(O)c3ccccc3)n2C)n(C)c1=O (stereo unspecified)	4	-8	/	18	8	5.8	3676
O=S(=O)(NCCn1ccc2ccccc21)c1ccccc1	1	-33	2	-1	7	15	8603
O=c1[nH]c(NC2CCN(S(=O)(=O)c3ccccc3C(F)(F)F)CC2)nc2c1CCCC2	10	-14	-14	1	7	-0.2	3174
Clc1ccc(-c2nnc3sc(Cc4cccs4)nn23)c(Cl)c1	-9	-16	-1	2	4	3.4	5587
O=C(O)c1c[nH]c2ccc(S(=O)(=O)N(CCCl)CCCl)cc12	4	-16	5	17	13	3.4	12004
CCN1CCN(c2oc(COc3ccc(Cl)cc3)nc2C#N)CC1	11	-12	1	9	-1	4.5	5039
O=C(CSc1nnc(-c2cccnc2)n1Cc1ccco1)Nc1cccc(O)c1	7	-16	-3	2	-3	6.0	4548
CC(=O)c1cc(-c2ccccc2)[nH]c1N1CCCC1	2	-13	10	/	/	0.5	/
COc1ccc(NS(=O)(=O)c2ccc3c(c2)CCC(=O)N3)cc1O	0	-1	/	-4	10	1.0	?
c1ccc(-n2cccc2)c(N2CCCCC2)c1	-5	-18	-5	-5	3	-5.6	4067

Structural class, the entries above with a nitro group on carbon (3)
compound	ugtP null kill	PrP 5UTR inh	BJeLR viability	Mtb hypoxia inh	Mtb hypoxia inh growth	RN4220 kill	Bead autofluor
CSc1nsc(NC(=O)CCNC(=O)c2ccc([N+](=O)[O-])cc2)n1	8	-21	0	-1	1	3.0	3578
COc1cc(C=NNC(=O)COc2c(C)cc([N+](=O)[O-])cc2C)ccc1OC(=O)c1ccccc1Br	-6	/	/	14	2	4.8	/
COc1ccc([N+](=O)[O-])cc1NC1CCN(C(=O)c2cccs2)CC1	17	-6	-7	3	7	4.5	4898

(listing goes on)
compound	ugtP null kill	PrP 5UTR inh	BJeLR viability	Mtb hypoxia inh	Mtb hypoxia inh growth	RN4220 kill	Bead autofluor
O=C(COC(=O)CNS(=O)(=O)c1ccc(F)c(F)c1F)Nc1ccc(OC(F)F)cc1	10	-16	-11	11	0	7.7	2157
CCOc1ccc(C(C)NC(=O)c2cccc(F)c2)cc1 (stereo unspecified)	3	1	-14	/	/	2.4	1979
O=C(NCCc1ccccc1)C1CCN(S(=O)(=O)N2CCCC2)CC1	-2	-16	-2	1	1	-4.6	12922
Cc1csc(NC(=O)CCCC(=O)c2ccccc2)n1	8	-13	5	-1	6	0.8	3646
CC(C)CCN1CC(C(=O)N2CCN(c3ccc(F)cc3)CC2)CC1=O (stereo unspecified)	-6	-31	-9	13	1	-15	2807
O=C(O)/C(=C\c1ccc(C(F)(F)F)cc1)c1ccc(S(=O)(=O)N2CCCC2)s1	-8	-5	/	5	-2	3.8	2994
O=C(NCCS(=O)(=O)N1CCN(c2ccccc2)CC1)C1CCCC1	0	0	1	1	-10	2.7	?
CCOc1cccc(C(=O)NNC(=O)CCC(=O)O)c1	4	-15	-7	7	1	2.9	2083
CCC(=O)N1CCc2cc(Br)cc(S(=O)(=O)CCC(=O)N(CC)CC)c21	3	-19	-9	2	4	3.2	4799
CCC(=NCCO)c1c(O)n(-c2ccccc2)c(=O)[nH]c1=O	-2	-17	-1	22	9	-11	2882
N/C(=N\OC(=O)c1cccc(Cl)c1)c1cccnc1	/	-31	8	/	/	/	3008
O=C(COC(=O)C1CC2CCCC(C1)C2=O)NC(=O)c1ccccc1 (stereo unspecified)	1	-26	/	1	-4	0.7	7071
COc1ccc(C(CNC(=O)c2cc3ccccc3cc2OC)N2CCCC2)cc1 (stereo unspecified)	10	-11	4	5	4	3.6	27989*
CCCSc1nc(O)c(C2OC(=O)c3c2ccc(OC)c3OC)c(=O)n1C (stereo unspecified)	3	-10	5	5	3	2.6	3021
COc1ccc(C(=O)Nc2ccccc2N2CCN(C(=O)c3ccccc3)CC2)cc1Br	-5	-16	4	-4	3	-2.1	5806
O=C(O)c1ccccc1SCC(=O)N1CCOCC1	-5	-28	-4	-6	6	-1.9	3370
CCCCNC(=O)Cn1nc([N+](=O)[O-])c([N+](=O)[O-])c1C	15	5	-14	2	-4	-3.7	2100
CC(C)(CN1CCc2ccccc2C1)NS(=O)(=O)c1ccc(Cl)cc1	11	-1	11	11	5	3.9	4388
CC(C)=C1C2CCC1C1C(=O)N(NC(=O)COc3ccc(C(C)(C)C)cc3)C(=O)C21 (stereo unspecified)	5	-29	8	/	/	-0.5	2708
Cc1cccc(OCC(=O)OCC(=O)N2CCN(C(=O)c3ccco3)CC2)c1C	9	-10	1	8	5	4.3	?
COc1ccc(CCNC(=O)COC(=O)C23CC4CC(CC(Br)(C4)C2)C3)cc1	-2	-22	-5	12	7	10	2515
CC1CCCCC12NC(=O)N(CC(=O)OCC(=O)N(C)C1CCCCC1)C2=O (stereo unspecified)	4	/	/	7	-6	0.7	4477
Cc1cc(C)c(C#N)c(SCC(=O)CC(=O)OC(C)C)n1	8	-11	7	/	/	1.1	6085
